Source: PubChem (National Center for Advancing Translational Sciences (NCATS))
VDR inh: vitamin D3 receptor (human) inhibition | P11473 | VDR-SRC2-3 peptide fluorescence polarization, 2 h | Potency, µM, without a hit: max response, negative = inhibition, actives largely listed as inhibitors | 0.93% of 400,000 active | AID 504847; active = well fitted inhibition curve with a large enough effect; inconclusive = small, poorly fitted or top-dose-only effect, or another doubt; inactive = no such curve, though single readings can be large or run the other way; note: series mostly up to about 120 µM
Target sequence (P11473 whole entry, looked up): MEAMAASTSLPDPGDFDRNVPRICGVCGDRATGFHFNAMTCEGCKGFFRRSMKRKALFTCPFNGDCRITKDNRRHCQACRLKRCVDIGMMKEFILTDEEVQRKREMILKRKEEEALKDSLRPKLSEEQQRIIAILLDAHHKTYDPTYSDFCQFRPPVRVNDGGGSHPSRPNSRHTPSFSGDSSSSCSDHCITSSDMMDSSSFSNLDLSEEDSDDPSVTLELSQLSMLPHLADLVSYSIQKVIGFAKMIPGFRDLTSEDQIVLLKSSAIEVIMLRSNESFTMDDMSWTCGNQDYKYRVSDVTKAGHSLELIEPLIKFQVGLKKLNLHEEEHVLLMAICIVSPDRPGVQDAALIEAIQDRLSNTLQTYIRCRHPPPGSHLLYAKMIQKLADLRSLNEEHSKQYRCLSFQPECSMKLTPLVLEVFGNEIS
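FP read-out; VDR + SRC2-3 coactivator peptide; 23 nl compound by pintool; 2 h RT incubation; reagents held at 4 deg C, protected from light.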
* hit, by the source's call; & = joins results of further samples. % is set by controls: 0 for no effect and ±100 for the full control effect; potency is the fitted concentration of half-maximal effect. An excerpt. The share of hits here may be higher or lower than overall.

`O=C(COC(=O)c1cnc(Cl)c(Cl)c1)Nc1cccc(S(=O)(=O)N2CCOCC2)c1` gave VDR inh -25.8%.
O=C(COc1ccc(Cl)cc1)NCc1nnc(SCC(=O)NCc2ccc3c(c2)OCO3)o1 was read as VDR inh 11.2%.
Cc1cccc2cc(CN(CCc3ccccc3)C(=O)N3CCOCC3)c3nnnn3c12 was read as VDR inh 20.2%.
`C=CCn1c(SCC(=O)Nc2ccc(NC(=O)c3ccco3)c(OC)c2)nnc1-c1ccncc1` gave VDR inh -26.7%.
`CCOC(=O)C1C(C(C)=O)=C(c2ccccc2)c2ccccc2N1S(=O)(=O)C(F)(F)F` (stereo not drawn) gave VDR inh -6.5%&-9.5%.
For COc1ccc(OC)c(-c2cc(C(=O)NCCCn3ccnc3)no2)c1 the results were VDR inh 1.9%.
Screening Cc1cc(OCC(=O)Nc2ccccc2N2CCCCC2)ccc1C(C)C returned VDR inh -19.2%.
`CCOc1ccc(N2C(=O)/C(=C\c3ccccc3OC)S(=O)(=O)C2c2cccc([N+](=O)[O-])c2)cc1` (stereo not drawn) gave VDR inh inconclusive.
COc1cccc(C(=O)NNC(=O)c2cccc(F)c2)c1 was read as VDR inh -16.7%.
Oc1ccc(C2=CSC3=NCCN23)cc1O was read as VDR inh -7.0%.
`Cc1ccc(S(=O)(=O)NNC(=O)c2sccc2-n2cccc2)cc1` gave VDR inh -18.0%.
`CCC(C)NS(=O)(=O)c1ccc(NC(=O)Cc2ccc(OC)cc2)cc1` (stereo not drawn) gave VDR inh -4.3%.
`O=C(CNC(=O)c1cccs1)Nc1ncccc1O` gave VDR inh -6.9%.
Screening CCCOC(=O)C1=C(C)NC(=O)NC1c1cc2c(cc1Br)OCO2 (stereo not drawn) returned VDR inh 6.4%.
`O=C(/C=C/CCc1ccc2c(c1)OCO2)N1CCCCC1` gave VDR inh -11.4%.
Screening Cc1ccc(C(=O)NCC2CCCO2)o1 (stereo not drawn) returned VDR inh -6.7%.
Cc1cc(C)n(-c2ccc(NC(=O)C3CCN(Cc4ccc(C)o4)CC3)cc2)n1 was read as VDR inh -14.8%.
CC(C)n1c(O)c(N=NC(=O)c2ccccc2NS(=O)(=O)c2cccs2)c2ccccc21 was read as VDR inh -29.3%.
For CCC(C)C(N)C(=O)NC(CCC(=O)OCc1ccccc1)C(N)=O (stereo not drawn) the results were VDR inh 4.1%.
`Cc1ccc(NC(=O)CCC(=O)OCC(F)(F)C(F)F)cc1` gave VDR inh -19.1%.
Cc1cc(C)n2c(SCC(=O)Nc3cccc(S(N)(=O)=O)c3)nnc2n1 was read as VDR inh -10.9%.
For CCOC(=O)C1C(c2cccc(Cl)c2Cl)NC(=O)NC1(O)C(F)(F)F (stereo not drawn) the results were VDR inh -2.3%.
Screening Cn1nnnc1SCc1ccc(F)cc1 returned VDR inh 3.3%.
For CC1(C)C(=O)OC(c2cccs2)C2(CCCCC2)C1=O (stereo not drawn) the results were VDR inh -12.7%.
`CNC(=O)CN(CCc1ccccc1)S(=O)(=O)c1ccc(OC)cc1` gave VDR inh -5.3%.
For Cc1ccc(S(=O)(=O)N2CCN(C)CC2)c(C)c1N(C)S(=O)(=O)c1ccc(Cl)cc1 the results were VDR inh 13.6%.
For CCn1c(CC(=O)Nc2ccccc2)nnc1SCC(=O)NC1=NCCS1 the results were VDR inh -4.9%.
For O=C(O)CSc1ccc2nnc(-c3cccnc3)n2n1 the results were VDR inh -17.5%&-14.5%.
Screening O=C(O)c1ccc(CSc2nnc(-c3ccncc3)n2-c2ccc(Cl)cc2)cc1 returned VDR inh -16.5%.
Screening COc1cccc(C2CC(=O)Nc3c2c(=O)n(C)c(=O)n3C)c1OC (stereo not drawn) returned VDR inh inconclusive.
Screening Cc1ccc(N2C(=O)C(Cl)=C(N3CCOCC3)C2=O)c(C)c1 returned VDR inh inconclusive.
`O=C(Nc1cccc(-c2nc3cc(Cl)ccc3o2)c1)c1ccc(F)cc1` gave VDR inh -0.2%.
For CCOC(=O)c1cc(-c2cccc([N+](=O)[O-])c2)nc2[nH]c(=O)[nH]c(=O)c12 the results were VDR inh -8.6%.
`CCOC(=O)N1CCN(C(=O)CNC2CCCCCCC2)CC1` gave VDR inh -9.7%.
For O=C(CN1CCN(S(=O)(=O)c2cc(Cl)ccc2Cl)CC1)c1ccc(O)c(O)c1 the results were VDR inh 3.6%.
Screening O=C1OCc2ccc(NC(=O)c3ccccc3C(=O)O)cc21 returned VDR inh 10.3%.

At a glance, part of the list above.
`O=C(COC(=O)c1cnc(Cl)c(Cl)c1)Nc1cccc(S(=O)(=O)N2CCOCC2)c1` gave VDR inh -25.8%.
O=C(COc1ccc(Cl)cc1)NCc1nnc(SCC(=O)NCc2ccc3c(c2)OCO3)o1 was read as VDR inh 11.2%.

Following part:
Screening Cc1c(C(=O)N(C)C)sc2c1c(=O)n(-c1ccc(Cl)cc1)c(=O)n2Cc1ccccc1F returned VDR inh 4.1%.
`CC(c1ccccc1)N1C(=O)NC(NC(=O)c2cccnc2)(C(F)(F)F)C1=O` (stereo not drawn) gave VDR inh 2.2%.
`COCCNC(=O)c1cc(-c2ccccc2C)nn1CC1CC(c2cccnc2)=NO1` (stereo not drawn) gave VDR inh -5.1%.
`COc1ccccc1CNC(=O)CN1C(=O)c2ccccc2S1(=O)=O` gave VDR inh -7.6%.
`O=C(Cc1ccc([N+](=O)[O-])cc1)N1CCN=C1SCc1ccccc1` gave VDR inh -12.0%.
For C=CCC1(C#N)C(=S)NC(C)=C(C(=O)OCC)C1c1ccccc1 (stereo not drawn) the results were VDR inh -7.0%.
For COc1ccc(OCC(=O)Nc2c3c(nn2-c2ccccc2)CS(=O)(=O)C3)cc1 the results were VDR inh -7.6%.
Screening COC(=O)c1ccc2c(=O)n(CCCCCC(=O)NCCNC(C)=O)c(=O)[nH]c2c1 returned VDR inh -6.3%.
For O=C(c1ccc([N+](=O)[O-])cc1)N1CCc2ccccc2C1 the results were VDR inh 4.9%.
Screening O=Cc1cn(CC(=O)Nc2ccc3c(c2)OCO3)c2ccccc12 returned VDR inh -0.4%.
`CCOC(=O)c1ccc(-c2c(-c3ccccc3OC)sc3cc4c(cc23)OCO4)cc1F` gave VDR inh -10.4%.
For O=C(NCCc1ccccc1)C1CCN(S(=O)(=O)N2CCOCC2)CC1 the results were VDR inh 1.4%.
CC12CCC(C(=O)OC3CCCCC3)(OC1=O)C2(C)C (stereo not drawn) was read as VDR inh 23.0%.
`CSCC(C)N1CCC(n2nccc2NC(=O)c2ccccc2C)CC1` (stereo not drawn) gave VDR inh 8.2%.
Screening CCCCCCCCCCCCCCCCOCC(CO)OC(C)=O (stereo not drawn) returned VDR inh 3.2%&-1.8%.
Screening CCC1CC=CC2C1C(=O)N(Cc1ccccc1)C2c1ccc2ccccc2c1 (stereo not drawn) returned VDR inh -15.6%.
N#Cc1ccc(S(=O)(=O)NC2CCCCNC2=O)cc1 (stereo not drawn) was read as VDR inh -0.8%.
For COC(=O)CCNC(=O)NC(CCC(C)C)c1c(-n2cccc2)sc2c1CCN(C)C2 (stereo not drawn) the results were VDR inh 13.6%.
`Cc1cc(=O)[nH]c(SCC(=O)Nc2ccc3c(c2)OCCO3)n1` gave VDR inh -2.0%.
For CCc1ccccc1Nc1nc2ccccc2n1CC the results were VDR inh 9.3%.
`CCOCCOC(=O)c1[nH]c2c(c1C)C(=O)CC(c1ccccc1)C2` (stereo not drawn) gave VDR inh -7.4%.
Screening O=C(CSCCO)Nc1cc(C(F)(F)F)ccc1Cl returned VDR inh 26.6%.
`CCCCCCCC/C=C\C/C=C\C/C=C\CCCC(=O)NCCO` gave VDR inh -11.3%&-0.5%.
For O=C1CN(C(=O)c2ccc(S(=O)(=O)N3CCCC3)cc2)C(c2ccc(F)cc2)c2cc(Br)ccc2N1 (stereo not drawn) the results were VDR inh -6.1%.
Screening OC1CCN(C(=S)Nc2ccc(Nc3ccccc3)cc2)CC1 returned VDR inh 4.3%.
For C=C1c2ccccc2NC(=S)N1Cc1ccc2c(c1)OCO2 the results were VDR inh -2.0%.
`COc1ccc(C2Nc3ccccc3C(=O)N2NS(=O)(=O)c2ccc(C)cc2)cc1` (stereo not drawn) gave VDR inh 2.2%.
`O=C(CC1N=C2c3ccccc3N=C(SCc3ccc(F)cc3)N2C1=O)NCc1cccs1` (stereo not drawn) gave VDR inh 1.0%.
Screening CN1CCN(c2nc3c(c(=O)[nH]c(=O)n3C)n2CC(N)=O)CC1 returned VDR inh 5.1%.
CCCC1([C@H](O)C/C=C/[C@H]2[C@H](O)CC(=O)[C@@H]2CCCCCCC(=O)OC)CCC1 was read as VDR inh -22.9%.
For COc1ccccc1N1CCN(C(=O)CCc2ccc(S(=O)(=O)NCC(C)C)cc2)CC1 the results were VDR inh 16.9%.
Cc1nc2ccc(S(=O)(=O)NC(C(=O)Nc3nccs3)C(C)C)cc2s1 (stereo not drawn) was read as VDR inh 9.4%.
`O=C(COC(=O)Cc1ccc(Cl)cc1)NCc1cccs1` gave VDR inh -10.1%.
O=C(c1ccc(-n2cccc2)cc1)N1CCOCC1 was read as VDR inh 7.7%.
For Cc1cccc(N2C(=O)C3CCCN3C2=S)c1C (stereo not drawn) the results were VDR inh 12.2%.
`O=C(N[C@H]1CCCCNC1=O)c1cc(COc2ccc(F)cc2F)on1` gave VDR inh -14.5%.
For C[C@@H](NC(=O)c1nc[nH]c1C(=O)N1CCc2ccccc2C1)c1ccccc1 the results were VDR inh -4.4%.
For CCC(=O)Nc1cc2c(cc1Cl)-c1ccccc1C2 the results were VDR inh -1.0%.
COc1ccc(Cn2nc(C)cc2C)cc1OC was read as VDR inh -6.1%.
Screening O=C1c2ccsc2SCCN1Cc1ccc(F)cc1 returned VDR inh -9.5%.
`CCOC(=O)c1cc(-c2ccccc2)n(CCC(=O)Nc2nc3c(C)cccc3s2)c1C` gave VDR inh -1.0%.
`O=C(COc1ccccc1)N1CCN=C1SCc1cccnc1` gave VDR inh -4.8%.
Screening Cc1nc(-c2ccccc2)sc1C(=O)NN returned VDR inh -11.6%.
Cc1cc(C)c2c(n1)SCC(=O)N2CC(=O)Nc1c(C)cccc1C was read as VDR inh -8.6%&11.9%.
`CCC1(CC)Cc2ccccc2-c2nc(NN)[nH]c(=O)c21` gave VDR inh -14.9%.
Screening CC(=O)COc1ccc2c(-c3cccc([N+](=O)[O-])c3)cc(=O)oc2c1 returned VDR inh 11.0%.
`Cc1cc(OCC(=O)NCCCN2CCCC2=O)c2c(C)cc(=O)oc2c1` gave VDR inh 5.3%.
CCCC(=O)NC(C)c1nc2ccccc2[nH]1 (stereo not drawn) was read as VDR inh -12.2%.
For COc1cc(/C=N/NC(=O)c2cccnc2)ccc1OCC(=O)N1CCOCC1 the results were VDR inh -3.0%.
`O=C(c1n[nH]c2ccccc12)N1CCOCC1` gave VDR inh 3.2%.
For O=C(c1ccc(Cl)cc1Cl)N1CCC(c2nc3c(nnn3Cc3ccco3)c(=O)[nH]2)CC1 the results were VDR inh 9.4%.
Screening C=C(C)[C@@H](O)COc1c2ccoc2cc2oc(=O)ccc12 returned VDR inh 7.4%.
`COc1ccc(NC(=O)Cc2coc3ccc4ccccc4c23)cc1S(=O)(=O)N1CCOCC1` gave VDR inh -18.4%.
For CC1CCN(C(=O)c2cc(F)c(F)cc2Cl)CC1 the results were VDR inh -9.8%.
`COc1ccc(CNC(=O)C2CC(C)=C(C)CC2C(=O)O)cc1` (stereo not drawn) gave VDR inh 0.7%.
CCCc1nc2oc3c(Cl)ncnc3c2c2c1CCCC2 was read as VDR inh 6.9%.
For CCNc1cc(O)ccc1C the results were VDR inh 79.4µM*.
CCOC(=O)C1(CCOC)CCN(Cc2ccc(COC)o2)CC1 was read as VDR inh -5.3%.
`Cc1ccc(SCCNCc2ccco2)cc1` gave VDR inh -10.0%.
`Cc1cc2cc(CN(Cc3ccco3)C(=S)NCC3CCCO3)c(=O)[nH]c2cc1C` (stereo not drawn) gave VDR inh -7.2%.
CC1CN(C(=O)CCC(=O)NCc2ccccc2)c2ccccc2O1 (stereo not drawn) was read as VDR inh inconclusive.
`CCOC(=O)N1CCN(C(=O)CCCn2c(=O)[nH]c3ccccc3c2=O)CC1` gave VDR inh -11.1%.
For OC(COC1CCCCC1)CN1CCCCC1 (stereo not drawn) the results were VDR inh -4.4%.
For O=C(Nc1ccccc1)c1ccc(N2CCN(c3ccccc3)CC2)c(S(=O)(=O)N2CCOCC2)c1 the results were VDR inh -17.5%.

Filtered by structure: the entries above with an NH in an aromatic ring.
For CCOC(=O)c1cc(-c2cccc([N+](=O)[O-])c2)nc2[nH]c(=O)[nH]c(=O)c12 the results were VDR inh -8.6%.
Screening COC(=O)c1ccc2c(=O)n(CCCCCC(=O)NCCNC(C)=O)c(=O)[nH]c2c1 returned VDR inh -6.3%.
`Cc1cc(=O)[nH]c(SCC(=O)Nc2ccc3c(c2)OCCO3)n1` gave VDR inh -2.0%.
`CCOCCOC(=O)c1[nH]c2c(c1C)C(=O)CC(c1ccccc1)C2` (stereo not drawn) gave VDR inh -7.4%.
Screening CN1CCN(c2nc3c(c(=O)[nH]c(=O)n3C)n2CC(N)=O)CC1 returned VDR inh 5.1%.
For C[C@@H](NC(=O)c1nc[nH]c1C(=O)N1CCc2ccccc2C1)c1ccccc1 the results were VDR inh -4.4%.
`CCC1(CC)Cc2ccccc2-c2nc(NN)[nH]c(=O)c21` gave VDR inh -14.9%.
CCCC(=O)NC(C)c1nc2ccccc2[nH]1 (stereo not drawn) was read as VDR inh -12.2%.
`O=C(c1n[nH]c2ccccc12)N1CCOCC1` gave VDR inh 3.2%.
For O=C(c1ccc(Cl)cc1Cl)N1CCC(c2nc3c(nnn3Cc3ccco3)c(=O)[nH]2)CC1 the results were VDR inh 9.4%.
`Cc1cc2cc(CN(Cc3ccco3)C(=S)NCC3CCCO3)c(=O)[nH]c2cc1C` (stereo not drawn) gave VDR inh -7.2%.
`CCOC(=O)N1CCN(C(=O)CCCn2c(=O)[nH]c3ccccc3c2=O)CC1` gave VDR inh -11.1%.
